Source: PubChem
Mtb MbtI inh = inhibitors of Mycobacterium tuberculosis siderophore enzyme MbtI; inhibition, %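 (about 17 µg/mL by stock and volumes)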; purified MbtI enzyme, fluorescence intensity read-out; actives 0.89% (n = 100,000); P9WFX0;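 active means above 50% in both replicates, above 80% if mildly self-fluorescent; inactive means the rest, strongly fluorescent compounds included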;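 further: 0% = mean of negative and 100% = mean of positive controls; one replicate is shown; some compounds called inactive have numbers as strong as hits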
Polio RdRp inh = inhibitors of poliovirus RNA polymerase binding and polymerization | poliovirus polymerase elongation, fluorescence polarization; active compounds read low | % elongation, % (compound at 16.7 µg/mL) | P03300 | actives 0.66% (n = 150,000); in the data active means % elongation below about 90%; further: some results filed as inactive read as strong as hits
Target sequence (P03300 1749-2209 limits assumed): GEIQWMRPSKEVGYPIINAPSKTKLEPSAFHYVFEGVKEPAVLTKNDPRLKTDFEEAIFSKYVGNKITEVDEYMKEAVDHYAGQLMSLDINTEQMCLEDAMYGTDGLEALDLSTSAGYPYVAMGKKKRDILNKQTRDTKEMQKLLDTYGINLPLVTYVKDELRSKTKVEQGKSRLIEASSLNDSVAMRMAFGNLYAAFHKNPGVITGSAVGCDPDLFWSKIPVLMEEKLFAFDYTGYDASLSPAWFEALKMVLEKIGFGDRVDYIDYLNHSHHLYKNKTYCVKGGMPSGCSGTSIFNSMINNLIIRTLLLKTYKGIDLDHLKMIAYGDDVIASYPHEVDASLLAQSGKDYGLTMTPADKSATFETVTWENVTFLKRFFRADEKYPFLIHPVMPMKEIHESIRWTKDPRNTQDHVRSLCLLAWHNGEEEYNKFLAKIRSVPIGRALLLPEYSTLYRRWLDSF
Mtb MenB inh = Mtb MenB enzyme inhibition | actives 0.43% (n = 100,000) | MenB enzyme assay, absorbance read-out; some hits fall short of the stated cut | P9WNP5 | inhibition, %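 (about 12 µg/mL by stock and volumes)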;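 active means mean of two replicates above 30%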;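 further: 0% = no compound and 100% = wells with inactive enzyme; the first replicate is given; strong numbers were not always called active; inactives centre near -10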
Target sequence (P9WNP5 whole entry, looked up): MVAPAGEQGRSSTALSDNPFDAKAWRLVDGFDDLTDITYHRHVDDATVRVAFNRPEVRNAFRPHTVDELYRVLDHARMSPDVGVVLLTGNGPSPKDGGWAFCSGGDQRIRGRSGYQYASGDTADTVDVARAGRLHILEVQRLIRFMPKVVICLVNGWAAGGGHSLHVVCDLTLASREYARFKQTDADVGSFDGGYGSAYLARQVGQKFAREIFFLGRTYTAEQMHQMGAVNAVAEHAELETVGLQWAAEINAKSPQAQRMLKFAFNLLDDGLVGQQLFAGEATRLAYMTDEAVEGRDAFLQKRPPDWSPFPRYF
Polio RdRp inh intensity = further read-out of Polio RdRp inh, marked with its call; % elongation; measured here: total intensity read-out; formula for this scale not given here;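 total fluorescence in place of polarization; lower means less elongation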
The depositor's hits bear a star; i = inactive; nt = not tested or not shown; & = joins results of further samples.

| canonical_smiles | Mtb MbtI inh | Polio RdRp inh | Polio RdRp inh intensity | Mtb MenB inh |
| --- | --- | --- | --- | --- |
| COc1ccc2nc3oc(C(=O)NC4CCN(Cc5ccccc5)CC4)cc3cc2c1 | -3 | 101 | 102 | -8 |
| Cc1nn(CCCC(=O)NC2CCCc3ccccc32)c(=O)c2nccn12 (configuration not stated) | -9 | 100 | 107 | 3 |
| O=C(CSc1nc2ccccc2n1CC(=O)N1CCCC1)N1CCCCC1 | -3 | 102 | 104 | 13 |
| COc1ccc(N2C(=O)/C(=C\C=C\c3ccccc3)SC2=S)cc1 | 7 | 101 | 97 | -12 |
| O=C1Nc2ccccc2S/C1=C/c1ccc(C(=O)N2CCOCC2)cc1 | -13 | 101 | 102 | -56 |
| Cc1cccc(NC(=O)c2cnc3sccn3c2=O)c1 | 95 | 101 | 100 | -27 |
| CCOC(=O)c1[nH]c2sc(C)c(C)c2c1N | 35 | 98 | 101 | 4 |
| COC(=O)c1ccc(CNCC2COc3ccccc3O2)o1 (configuration not stated) | 14 | 106 | 112 | -29 |
| Cc1c(-c2ccccc2)cc2ccccn12 | i | 104 | 100 | nt |
| CCOC(=O)c1ccccc1NC(=O)C=C(C)C | -32 | 99 | 103 | -12 |
| COC(=O)c1ccc(CSc2nccn2C)cc1 | nt | 100 | 107 | -6 |
| CN(C)c1cc(C(F)(F)F)nc2c(Cl)c(C(C)(C)C)nn12 | -7 | 102 | 103 | -10 |
| Cn1c(=O)oc2cc(S(=O)(=O)NCc3cccn3Cc3ccc(Cl)cc3)ccc21 | -9 | 101 | 103 | -13 |
| CC(=O)OCc1cnn(-c2ccccc2)n1 | nt | 102 | 108 | -6 |
| CCOC(=O)Nc1ccc(Cc2ccncc2)cc1 | 1 | 103 | 99 | -83 |
| COCc1c(C(=O)OCc2ncc(-c3ccccc3)o2)oc2ccccc12 | 9 | 98 | 87 | -31 |
| CCc1nnc2c3ccccc3nc(N3CCN(c4cccc(C)c4C)CC3)n12 | -27 | 100 | 100 | -1 |
| O=C(/C=C(/O)c1cccnc1)C(F)(F)F | 10 | 101 | 105 | -27 |
| c1ccc(-n2c(Sc3cnccn3)nnc2-c2cccs2)cc1 | 34 | 102 | 99 | -2 |
| CC12C(=O)N(c3cccc(C(=O)O)c3)C(=O)C1C1C=CC2C1 (configuration not stated) | nt | 100 | 99 | -6 |
| N#CC(C#N)=c1s/c(=C/c2ccc(-c3ccc(S(=O)(=O)N4CCOCC4)cc3)o2)c(=O)n1-c1ccc(F)cc1 | 11 | 45 | 238 | 4 |
| CCCCN(Cc1ccccc1)C(=O)C1CCCN1S(=O)(=O)c1cccc2nsnc12 (configuration not stated) | -9 | 104 | 101 | -3 |
| COc1ccc(N2C(=O)CSC2c2cccc(OC)c2OC)cc1 (configuration not stated) | 11 | 102 | 104 | -9 |
| CCc1cc(CC)c(/C=N/NC(N)=O)c(CC)c1/C=N/NC(N)=O | -4 | 99 | 101 | -10 |
| Cc1cc(C)n(CC/C(N)=N/OC(=O)c2ccccc2)n1 | -2 | 103 | 106 | -5 |
| CCN(CC)c1ccc(C2C(C#N)=C(C)NC3=C2C(=O)CC(c2ccccc2)C3)cc1 (configuration not stated) | 2 | 102 | 101 | -31 |
| CN(C)c1ccc(/C=C2/C(=O)NC(=O)N(C3CCCCC3)C2=O)cc1 | 11 | 95 | 109 | -23 |
| O=C(COc1ncnc2c(Cl)cc(Cl)cc12)NCc1ccc2c(c1)OCO2 | -10 | 104 | 99 | -15 |
| Cc1cccc(N2CCN(C(c3cc4cc5c(cc4[nH]c3=O)OCO5)c3nnnn3CC3CCCO3)CC2)c1C (configuration not stated) | 9 | 102 | 104 | -5 |
| O=C(COc1ccc(Cl)cc1)OCC(=O)N1CCCC1 | -3 | 102 | 112 | nt |
| CC1CCC2(OC1)OC1CC3C4CC[C@H]5C[C@@H](O)CC[C@]5(C)C4CC(=O)[C@]3(C)C1C2C (some centres not stated) | -13 | 101 | 104 | 12 |
| COC(=O)CC1(C)OCC2(CC=C(C)CC2)CO1 (configuration not stated) | -10 | 100 | 107 | nt |
| CC[C@H]1CN2CCc3cc(OC)c(OC)cc3[C@@H]2C[C@@H]1C[C@H]1NCCc2cc(O)c(OC)cc21 | -7 | 97 | 104 | -2 |
| c1ccc(C2=C(c3ccccc3)N3CCN=C3S2)cc1 | 16 | 103 | 100 | 17 |
| C(=N\N1CCCCC1)/c1cn(-c2ccccc2)nc1-c1cccnc1 | 6 | 104 | 98 | -34 |
| Cc1occc1C(=O)Nc1ccc(Oc2ccccc2)cc1 | 0 | 100 | 101 | 1 |
| O=C(O)CCN1CN(CCC(=O)O)c2ccccc21 | -2 | 99 | 100 | 2 |
| Cc1cc(C)n2nc(N3C(=O)c4ccccc4C3=O)nc2n1 | 0 | 108 | 100 | -27 |
| CC(C)(C)NC(=O)c1c(N)no[n+]1[O-] | 3 | 101 | 101 | -2 |
| COc1ccc(C2=CC(=O)C=CC2=O)cc1 | 109 | 102 | 102 | -5 |
| Cc1ccc(-c2cc(C(=O)c3nccn3C)c3ccccc3n2)cc1 | 8 | 100 | 105 | nt |
| Cc1ccc(-n2ncc3c(=O)[nH]c(SC(C)C)nc32)cc1 | -7 | 101 | 104 | 1 |
| O=C(O)[C@@H]1CSC(c2coc3ccccc3c2=O)N1 (some centres not stated) | nt | 103 | 100 | -94 |
| O=C1NC2(CCCC2)Cc2ccccc21 | 0 | 102 | 99 | 7 |
| Cc1ccc(C(=O)N2CCn3c(C)ccc3C2C)cc1 (configuration not stated) | 9 | 105 | 123 | -8 |
| COC(=O)c1ccc(O)c(C(=O)OC)c1 | -126 | 0.0* | 26* | -2 |
| O=C(Nc1ccccc1)N1CCc2sccc2C1c1ccc(C(F)(F)F)cc1 (configuration not stated) | 2 | 97 | 111 | -17 |
| Cc1ccc(C(=O)COC(=O)C(C)N2C(=O)C3C4C=CC(C4)C3C2=O)cc1 (configuration not stated) | -4 | 103 | 101 | -22 |
| COC(=O)c1ccc(NC(=O)CN2C(=O)CCC2=O)cc1 | -8 | 106 | 107 | -7 |
| Cc1cc(C)n(-c2ccc(C(=O)N3CCCSC3=Nc3ccccc3)cc2)n1 | -2 | 103 | 103 | -2 |

5 entries picked at random from those above:
| canonical_smiles | Mtb MbtI inh | Polio RdRp inh | Polio RdRp inh intensity | Mtb MenB inh |
| --- | --- | --- | --- | --- |
| O=C1NC2(CCCC2)Cc2ccccc21 | 0 | 102 | 99 | 7 |
| Cc1ccc(C(=O)COC(=O)C(C)N2C(=O)C3C4C=CC(C4)C3C2=O)cc1 (configuration not stated) | -4 | 103 | 101 | -22 |
| Cc1ccc(-c2cc(C(=O)c3nccn3C)c3ccccc3n2)cc1 | 8 | 100 | 105 | nt |
| Cc1cc(C)n(-c2ccc(C(=O)N3CCCSC3=Nc3ccccc3)cc2)n1 | -2 | 103 | 103 | -2 |
| Cc1ccc(C(=O)N2CCn3c(C)ccc3C2C)cc1 (configuration not stated) | 9 | 105 | 123 | -8 |

Remaining list, next part
| canonical_smiles | Mtb MbtI inh | Polio RdRp inh | Polio RdRp inh intensity | Mtb MenB inh |
| --- | --- | --- | --- | --- |
| Cn1c(COc2ccccc2Cl)nnc1SCC(=O)N1CCNC1=O | -5 | 107 | 111 | -4 |
| O=C(NCc1ccccc1)c1nc2ncccn2n1 | 6 | 103 | 100 | -5 |
| O=C(NC1CCCCCCC1)c1cccs1 | nt | 95 | 92 | -3 |
| CCOC(=O)c1c(C)n(CC)c2ccc(OC)cc12 | -4 | 101 | 103 | 4 |
| O=S(=O)(/N=C1\C=C2N(CCO)CCOC2(O)c2ccccc21)c1ccc(F)cc1 (configuration not stated) | 14 | 98 | 102 | -91 |
| CCc1nc(Cc2nc3ccccc3[nH]2)no1 | 4 | 107 | 107 | -11 |
| Cc1cc(C)c(SCC(=O)NCc2ccc3c(c2)OCO3)c(C)c1 | 3 | 104 | 104 | 15 |
| CC1(C)CC(=O)C2=C(C1)Nc1ccccc1NC2c1ccccc1 (configuration not stated) | 0&-3 | 105&98 | 106&105 | -29 |
| COc1ccc(-n2cnc3c(cnn3CCC#N)c2=N)cc1 | 8 | 103 | 103 | -12 |
| COc1cc(C(F)(F)F)cc(C(F)(F)F)c1C(=O)NCc1cccs1 | -12 | 101 | 103 | -7 |

Ordered by SMILES length (high to low): part of the list above
| canonical_smiles | Mtb MbtI inh | Polio RdRp inh | Polio RdRp inh intensity | Mtb MenB inh |
| --- | --- | --- | --- | --- |
| Cc1cc(C)c(SCC(=O)NCc2ccc3c(c2)OCO3)c(C)c1 | 3 | 104 | 104 | 15 |
| CC1(C)CC(=O)C2=C(C1)Nc1ccccc1NC2c1ccccc1 (configuration not stated) | 0&-3 | 105&98 | 106&105 | -29 |
| Cn1c(COc2ccccc2Cl)nnc1SCC(=O)N1CCNC1=O | -5 | 107 | 111 | -4 |
| COc1ccc(-n2cnc3c(cnn3CCC#N)c2=N)cc1 | 8 | 103 | 103 | -12 |
| CCc1nc(Cc2nc3ccccc3[nH]2)no1 | 4 | 107 | 107 | -11 |
| O=C(NC1CCCCCCC1)c1cccs1 | nt | 95 | 92 | -3 |

(listing goes on)
| canonical_smiles | Mtb MbtI inh | Polio RdRp inh | Polio RdRp inh intensity | Mtb MenB inh |
| --- | --- | --- | --- | --- |
| CCc1ccc(C(=O)Nc2cc(C)nn2-c2nc3ccccc3s2)cc1 | -13 | 101 | 96 | nt |
| CCOc1ccc(S(=O)(=O)NCCSc2ccccc2)cc1 | -5 | nt | nt | -18 |
| FC(F)(F)/C(=N\P(=S)(N1CCOCC1)N1CCOCC1)N1CCOCC1 | -2 | 104 | 109 | -20 |
| C=CCN(CC=C)C(C)C(=O)Nc1cc2oc3ccccc3c2cc1OC (configuration not stated) | 5 | 98 | 106 | -48 |
| C=CCN1C(=O)/C(=C/c2c(NCC)nc3ccccn3c2=O)SC1=S | 10 | 112 | 173 | -37 |
| O=C1CCCN1C(=O)COc1ccc(Cl)c2ccccc12 | 14 | 104 | 108 | -7 |
| CC(C)c1ccc2c(c1)C1(N=C(N)Nc3nc4ccccc4n31)C(=O)N2 (configuration not stated) | 1 | 101 | 104 | -30 |
| O=C(NCc1nnc(SCC(=O)N2CCCCC2)o1)c1cccs1 | -2 | 102 | 104 | -19 |
| CC12CN3CC(c4ccccc4)(CN(C1)C31CCCCC1)C2=O | -8 | 100 | 103 | 5 |
| O=C1CC(c2ccco2)CC(O)=C1C=NC1CCCCC1N=CC1=C(O)CC(c2ccco2)CC1=O (configuration not stated) | 2 | 101 | 105 | -9 |
| COc1ccc(NS(=O)(=O)c2ccc3oc(SCC(=O)N4CCc5ccccc5C4)nc3c2)cc1 | 22 | 105 | 100 | 11 |
| Cc1ccc(-c2nc3ccccc3s2)cc1 | 6 | 104 | 91 | nt |
| CC(C)c1ccc(Cc2nnc(NN3CCOCC3)[nH]c2=O)cc1 | -7 | 106 | 114 | -10 |
| COc1ccc(NC2=CC(=O)CCC2)c(OC)c1 | 25 | 102 | 101 | -22 |
| CC(C)C(=O)N1CCCCCC1 | nt | 108 | 99 | -21 |
| COC(=O)C[C@H](NC(=O)[C@H](C)NC(=O)[C@@H](NC(=O)OCc1ccccc1)C(C)C)C(=O)CF | 7 | 102&101 | 96&97 | -14 |
| Cc1cc(N2CCC3CCCC(C2)N3Cc2ccccc2)n2c(n1)nc1ccccc12 (configuration not stated) | 5 | 105 | 104 | -16 |
| Cc1ccc(Cl)cc1N1CCN(C(=O)C2CCCN(S(=O)(=O)c3cccc4nonc34)C2)CC1 (configuration not stated) | -5 | 103 | 100 | -1 |
| Cc1cc(COC(=O)c2ccccc2Sc2ccccc2C#N)no1 | -12 | 104 | 104 | -28 |
| Cc1cccc(N2CCN(C(=O)N(C)C)CC2)c1C | -2 | 101 | 98 | -41 |

Part of the list above, with two lines to a compound.
Each structure is followed by: Mtb MbtI inh | Polio RdRp inh | Polio RdRp inh intensity | Mtb MenB inh
Cc1cc(N2CCC3CCCC(C2)N3Cc2ccccc2)n2c(n1)nc1ccccc12 (configuration not stated)
→ 5 | 105 | 104 | -16
COc1ccc(NC2=CC(=O)CCC2)c(OC)c1
→ 25 | 102 | 101 | -22

The listing continues:
| canonical_smiles | Mtb MbtI inh | Polio RdRp inh | Polio RdRp inh intensity | Mtb MenB inh |
| --- | --- | --- | --- | --- |
| COc1ccc(C(=O)N=Nc2c(O)n(CN3CCN(C)CC3)c3ccccc23)cc1OC | 6 | 101 | 102 | -3 |
| S=C(S)N1CCCC1 | 96* | 108 | 110 | -60 |
| COc1cccc(NC(=O)CSc2nncn2N)c1 | -10 | 100 | 103 | 23 |
| CC1Cc2cc(C(=O)NC3CCCCC3)ccc2O1 (configuration not stated) | -12 | 104 | 104 | -3 |
| O=C(NCCc1ccccc1)C1CCN(C(=O)c2ccco2)CC1 | -25 | 102 | 101 | 5 |
| COC(=O)C(C)N(C(=O)c1c(F)cccc1F)c1c(C)cccc1C (configuration not stated) | nt | 108 | 112 | -13 |
| O=C(CCC(=O)N1Cc2ccccc2Oc2ncccc21)N1CCCC1 | -18 | 101 | 104 | -9 |
| CC(=O)N1C(=S)NC(=O)/C1=C\c1ccc(C(C)C)cc1 | 3 | 106 | 98 | 25 |
| Cc1csc(=O)n1CC(=O)OCCCn1c(=O)[nH]c2ccccc21 | 12 | 98 | 101 | -21 |
| [O-][n+]1onc2c(-c3ccccc3)nnc(-c3ccccc3)c21 | -6 | 98 | 102 | -72 |
| Cc1cc(C)c(C(N)=O)c(SCC(=O)c2ccccc2)n1 | -4 | 104 | 102 | -28 |
